GIV-Gai inh: inhibitors of GIV peptide binding to Galpha-i3, primary screen, biochemical, fluorescence polarization, FITC-GIV GBA peptide, rat Galphai3; Guanine nucleotide-binding protein G(i) subunit alpha-3 (Rattus norvegicus), P08753; 90 min; active compounds read low; scaled: aluminum fluoride 0%, vehicle 100%; percent of control (FP), % (concentration not given with the values); 210,000 compounds, 0.42% hits;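 active = replicate mean at 85% of control or lower, very high polarization wells dropped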;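 also: wells of about 15 µL received 100 nL stock; the first replicate is given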
Target sequence (P08753 whole entry, looked up): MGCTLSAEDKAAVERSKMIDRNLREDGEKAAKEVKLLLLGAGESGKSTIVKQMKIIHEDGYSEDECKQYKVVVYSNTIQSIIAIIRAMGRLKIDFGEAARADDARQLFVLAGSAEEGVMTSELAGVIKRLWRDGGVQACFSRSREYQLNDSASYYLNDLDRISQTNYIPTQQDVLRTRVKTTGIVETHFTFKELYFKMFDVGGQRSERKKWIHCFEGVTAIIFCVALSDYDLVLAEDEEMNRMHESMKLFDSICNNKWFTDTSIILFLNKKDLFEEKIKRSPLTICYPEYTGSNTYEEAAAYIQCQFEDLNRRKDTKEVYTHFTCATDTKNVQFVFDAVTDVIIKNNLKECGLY
Sa growth 42C: S. aureus growth inhibition at 42 and 30 °C, primary screen, LtaS inhibitor project, RN4220, two temperatures; AID 720641, 2013; 170,000 compounds, 0.53% hits; relative growth, % (concentration not given with the values); OD600, 20 h, 42 °C; active compounds read low;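 active = growth at 42 °C up to 50% and 20 or more points under that at 30 °C, or under 10% at both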;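 also: 300 nL library stock went into each well; scaled to the means of positive and negative controls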
HCMV UL50-53 inh: inhibitors of HCMV UL50-UL53 interaction, biochemical, HTRF; HCMV UL50-UL53 nuclear egress complex (human cytomegalovirus); normalized percent inhibition; inhibition, % (concentration not given with the values); 190,000 compounds, 0.15% hits; AID 1918969, 2023;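 active = both replicates at 50% or more, plus weaker picks with an unusually low signal ratio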;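 also: stock transfer was 100 nL into about 20 µL; 0% = negative control wells and 100% = wells with untagged competitor protein; inactives centre near -12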
Sa growth 42C second temp: second read-out of Sa growth 42C, no call of its own (marks repeat the call); relative growth, %; measured here: growth at 30 °C;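 optical density after 20 h as mean of two plates; 100% = untreated growth and lower means inhibition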
An asterisk follows results filed as active; · = no result given; & = joins results of further samples.

entry | SMILES | GIV-Gai inh | Sa growth 42C | Sa growth 42C second temp | HCMV UL50-53 inh
1 | COc1ccc(S(=O)(=O)/N=C2/NC(=O)/C(=C\c3cccnc3)S2)cc1 | 113 | · | · | -32
2 | COc1ccc(OC)c(NC(=O)Cn2cnc3ccc(S(=O)(=O)N4CCC(C)CC4)cc3c2=O)c1 | 106 | 104 | 91 | -19
3 | Cc1cc(-c2nc3ncccc3o2)ccc1NC(=O)COc1cc(C)c(Cl)c(C)c1 | 98 | 87 | 94 | 2
4 | Cn1c(CSCC(=O)Nc2ccccc2)nnc1SCc1ccccc1 | 98 | 123 | 85 | -7
5 | CCn1c2c(c3cc(C(=O)O)ccc31)CCCC2=O | 108 | 99 | 104 | -13
6 | CCC(C)(CC(=O)O)CC(=O)Nc1ccc(NC(C)=O)cc1 (configuration not stated) | · | 97 | 91 | -29
7 | CCCN1C(=O)/C(=C/c2ccc(-c3ccc(Br)cc3)o2)NC1=S | -83* | 120 | 78 | -27
8 | CN1/C(=C\C=N\NC(=O)CCN2CCCCC2)C(C)(C)c2ccccc21 | · | 81 | 75 | -43
9 | O=C1c2ccc(Br)cc2C(=O)N1C(c1ccccc1)c1ccccc1 | · | 91 | 103 | 2
10 | COc1ccc(NC(=O)c2cccc(N3CCCS3(=O)=O)c2)cc1 | 104 | 83 | 88 | ·
11 | Cc1noc(-c2cccnc2N2CCN(C(c3ccccc3)c3ccccc3)CC2)n1 | 99 | · | · | -5
12 | CCOC(=O)c1c(C)[nH]c(C(=O)Nc2ccc(C)cc2)c1C | · | 85 | 89 | -16
13 | N#CC1=C(C(N)=O)N=C(c2ccccc2)C(c2ccccc2)N1 (configuration not stated) | 115 | 78 | 62 | -8
14 | COc1ccc2c(c1)CCc1c(C(=O)NC(C)c3ccccc3)noc1-2 (configuration not stated) | 102 | 82 | 89 | -15
15 | CC1CCc2c(sc3nc(CCC(=O)NCCC4=CCCCC4)[nH]c(=O)c23)C1 (configuration not stated) | 100 | · | · | -12
16 | CCC(=O)N1CCc2cc(Br)cc(S(=O)(=O)NCCc3ccccc3Cl)c21 | 100 | 104 | 86 | -16
17 | CC1CCC(NC(=O)C2(C)Cn3c(nc4ccccc43)C(=O)N2CC2CCCO2)CC1 (configuration not stated) | 103 | · | · | 26
18 | O=C1c2ccccc2NC(c2ccc(O)cc2)N1c1ccccc1 (configuration not stated) | 100 | 99 | 91 | -23
19 | Cc1onc(-c2ccccc2Cl)c1C(=O)c1ccccc1 | 107 | 95 | 88 | -35
20 | CCOC(=O)C1=C(C)N=c2s/c(=C\c3cc(OC)c(OC)c(OC)c3)c(=O)n2C1c1ccc2c(c1)OCO2 (configuration not stated) | 103 | · | · | -22
21 | CC1=N/C(=C\c2ccc3ccccc3c2)C(=O)O1 | 105 | 101 | 95 | -18
22 | Cc1csc(SCc2ccccc2C(=O)O)n1 | · | 92 | 94 | 2
23 | CC(=O)Nc1ccc(NC(=O)COCC(=O)O)cc1 | 104 | 95 | 95 | -4
24 | CC1=C(C(=O)Nc2ccc(Cl)cc2)C(c2cccs2)n2nc(SCc3cccc(Cl)c3)nc2N1 (configuration not stated) | 105 | 101 | 90 | -19
25 | CN(Cc1ccccc1)C(=O)CSc1nc2c(c(C(F)(F)F)n1)CCc1ccccc1-2 | 104 | 90 | 81 | ·
26 | O=C(NCCCN1CCN(c2ccccc2)CC1)c1nnc(Cc2ccc(F)cc2)o1 | 98 | 113 | 98 | 4
27 | CC1C(=O)CCN(CCO)C1C (configuration not stated) | 101 | 122 | 96 | -6
28 | CC(C)NS(=O)(=O)c1ccc(OCC(=O)N(C)Cc2ccccc2)cc1 | 99 | 101 | 102 | 2
29 | CC1CCCCN1C(=O)/C=C/c1ccccc1 (configuration not stated) | 111 | 106 | 101 | -2
30 | CCC(C)NC(=O)c1noc2c1COc1ccc(C)cc1-2 (configuration not stated) | 112 | · | · | -10
31 | COc1cccc(C(c2nnnn2CCC(C)C)N2CCN(c3cccc(C)c3C)CC2)c1OC (configuration not stated) | 98 | 86 | 76 | -6
32 | CNC(=O)c1c(-c2ccccc2)oc2ccc(O)cc12 | 96 | 92 | 84 | -29
33 | CC(C)[C@H](NS(=O)(=O)c1ccc2c(c1)OCCO2)C(=O)Nc1ccccc1 | · | 72 | 93 | -30
34 | CC(=O)N(c1ccccc1)C(C)C1CC1 (configuration not stated) | 104 | 72 | 83 | -24
35 | O=C(Nc1ccc2cn[nH]c2c1)c1ccc(C(F)(F)F)cc1 | · | 101 | 91 | -14
36 | S=c1[nH]nc(-c2ccncc2)n1CCc1ccccc1 | 105&101 | 97&95 | 90&102 | -19&-10
37 | Cc1ccc(/C=N/NC(=O)CCn2nc(C)cc2C)c(C)c1 | · | 110 | 94 | -16
38 | O=C(c1cccs1)N(Cc1ccco1)c1ccc(O)cc1 | 106 | 72 | 98 | 5
39 | COc1ccc(-n2nc(C(=O)NCCc3ccc(Cl)cc3)c3c4ccccc4n(C)c3c2=O)cc1Cl | 102 | 104 | 92 | -5
40 | CC(Oc1ccccc1F)C(=O)N(C)Cc1ccccc1 (configuration not stated) | 103 | 94 | 101 | 2
41 | COc1ccc(Nc2c(-c3ccc(C)o3)nc3ccc(Cl)cn23)cc1 | 104 | 86 | 85 | -27
42 | CCN1CCN(CCCNC(=O)CS(=O)(=O)Cc2nc(-c3cccc(OC)c3)oc2C)CC1 | 100 | 102 | 93 | -5
43 | N#C/C(=C\c1ccccc1)C(=O)C1CC1 | 102 | 89 | 78 | -60
44 | Cc1nc(-c2ccc(N3CCN(C(=O)CNS(=O)(=O)c4ccccc4)CC3)cc2)no1 | 106 | · | · | -35
45 | Cc1cccc(Cn2c(=O)n(-c3ccccc3C)c(=O)c3c2c2cc(C)ccc2n3C)c1 | 108 | 114 | 88 | ·
46 | CO/N=C/c1ccc(OC)c(OC)c1 | 105 | 120 | 94 | -20
47 | CCCCC(CC)CNC(=O)C1CCC(CNS(=O)(=O)c2cccc3nsnc23)CC1 (configuration not stated) | 106 | 98 | 87 | -35
48 | O=C(CSc1cn(CCNC(=O)c2c(F)cccc2F)c2ccccc12)Nc1ccccc1F | 108 | 111 | 87 | 6
49 | COc1cc(O)ccc1C1CC(=O)Nc2c1c(=O)nc(SCc1ccccc1C)n2C (configuration not stated) | 104 | 72 | 89 | 2
50 | Cn1c(NCCCO)nc2c(c1=O)C1(CCCCC1)Cc1ccccc1-2 | 104 | 103 | 88 | -20
51 | COc1ccc(Br)cc1/C=C/C(=O)O | 92 | 100 | 92 | ·
52 | CC1=C(C(=O)NCCN(C)C)C2(CCN(Cc3ccccc3)CC2)OC1=O | 107 | 103 | 87 | -29
53 | COCc1cc(C)nc2sc(C(=O)Nc3cc(C)ccc3F)c(N)c12 | 99 | 91 | 88 | -32
54 | COc1ccc(OC)c(-c2ccn[nH]2)c1OCc1ccccc1 | 107 | 63 | 45 | -3
55 | CCCC(=O)OCc1cnc(C)c2oc(=O)c(C(=O)Nc3cccc(C(F)(F)F)c3)cc12 | 105 | 78 | 78 | ·
56 | CC(C)CN(CCCNC(=O)c1cn(C)c2ccc(S(=O)(=O)N(C)C3CCCCC3)cc2c1=O)CC(C)C | 101 | 85 | 90 | -32
57 | COC(=O)c1sc(N)c(C(=O)OC)c1CC#N | · | 65 | 72 | -25
58 | COc1cc(/C=C2\C(=O)NC(=O)N(c3cc(C)cc(C)c3)C2=O)cc(OC)c1O | 151 | · | · | -30
59 | CCOc1ccc(NS(=O)(=O)c2cc(C(=O)N3CCN(c4ccc(F)cc4)CC3)n[nH]2)cc1 | 94 | · | · | -3
60 | CN(C(=O)CSc1ncnc2sccc12)C1CCCCC1 | · | 101 | 97 | -5

Next section:
entry | SMILES | GIV-Gai inh | Sa growth 42C | Sa growth 42C second temp | HCMV UL50-53 inh
61 | COc1ccccc1NCc1cccn1-c1nnc(N2CCCC2)s1 | 110 | 100 | 101 | 0
62 | CCC(=O)N1CCc2cc(S(=O)(=O)NCCC(=O)Nc3ccc(OC)c(OC)c3)ccc21 | 105 | 105 | 92 | -9
63 | Cc1cc(C)c2oc(C(=O)Nc3c(C)n(C)n(-c4ccccc4)c3=O)cc(=O)c2c1 | 105 | 101 | 84 | -23
64 | CC1=NN(C(=O)c2ccccc2)C(O)(C(F)(F)F)C1 (configuration not stated) | 102 | 107 | 87 | ·
65 | O=C(c1[nH]nc2c1CCc1ccccc1-2)N1CCC(CCN2CCCC2)CC1 | 107 | · | · | -9
66 | C=CCN1CC(c2nc3ccccc3n2CC(O)COc2cc(C)ccc2C)CC1=O (configuration not stated) | 103 | · | · | 9
67 | O=C(O)c1cc2c3c(c1)C1C=CCC1C(c1ccc(F)cc1)N3CC1CC=CC21 (configuration not stated) | 99 | · | · | 5
68 | COc1cc(/C=N/n2c(C)nnc2C)cc(OC)c1O | · | 99 | 92 | -42
69 | COc1cc(Cl)c(NS(=O)(=O)c2cc(-c3cc(C)no3)ccc2OC)c(OC)c1 | 100 | 96 | 91 | ·
70 | Cc1nc(S(=O)(=O)NC2CCS(=O)(=O)C2)cn1C (configuration not stated) | 98 | 100 | 96 | 17
71 | CCOC(=O)c1c(C)cc(C)n2c1nc1ccccc12 | · | 94 | 97 | -21
72 | CC(C)c1cc(C(=O)N2CCC(c3nc4ccccc4s3)CC2)nn1C1CCS(=O)(=O)C1 (configuration not stated) | 98 | · | · | 10
73 | Cn1cc(NC(=O)N(Cc2ccco2)CC2CCCO2)c2ccccc2c1=O (configuration not stated) | 97 | 92 | 94 | ·
74 | CCC(C)NC(=O)Cn1c(=O)n(CCc2ccccc2)c(=O)c2c3c(sc21)CCCC3 (configuration not stated) | 104 | 99 | 94 | ·
75 | CCN(CC)c1ncc(C(=S)N=P(N(C)C)(N(C)C)N(C)C)s1 | · | 98 | 94 | -44
76 | O=C(Nc1cccc(F)c1)c1nnc(C2CCCN2C(=O)c2ccc(Cl)cc2)s1 (configuration not stated) | 109 | · | · | -25
77 | Cc1ccc(C(=O)NCC2CCCO2)cc1NC(=O)C1=CSCCO1 (configuration not stated) | 99 | · | · | -24
78 | CCc1ccc(N2C(=O)N(CC(N)=O)C3CS(=O)(=O)CC32)cc1 (configuration not stated) | 102 | 98 | 87 | -18
79 | Cc1ccc(C)c(CN2C(=O)c3ccccc3S(=O)(=O)c3ccc(C(=O)NCCCN4CCCC(C)C4)cc32)c1 (configuration not stated) | 105 | 108 | 60 | -32
80 | COc1cccc(C2NC(=O)NC(C)=C2C(=O)Nc2cccc(Cl)c2)c1OC (configuration not stated) | 109 | 103 | 87 | 2
81 | CCOC(=O)c1nc(N2CCC3(CC2)OCCO3)c2ccccc2n1 | 104 | 92 | 81 | -73

16 entries from above, sorted by length of the SMILES, highest first.
entry | SMILES | GIV-Gai inh | Sa growth 42C | Sa growth 42C second temp | HCMV UL50-53 inh
79 | Cc1ccc(C)c(CN2C(=O)c3ccccc3S(=O)(=O)c3ccc(C(=O)NCCCN4CCCC(C)C4)cc32)c1 (configuration not stated) | 105 | 108 | 60 | -32
72 | CC(C)c1cc(C(=O)N2CCC(c3nc4ccccc4s3)CC2)nn1C1CCS(=O)(=O)C1 (configuration not stated) | 98 | · | · | 10
62 | CCC(=O)N1CCc2cc(S(=O)(=O)NCCC(=O)Nc3ccc(OC)c(OC)c3)ccc21 | 105 | 105 | 92 | -9
74 | CCC(C)NC(=O)Cn1c(=O)n(CCc2ccccc2)c(=O)c2c3c(sc21)CCCC3 (configuration not stated) | 104 | 99 | 94 | ·
69 | COc1cc(Cl)c(NS(=O)(=O)c2cc(-c3cc(C)no3)ccc2OC)c(OC)c1 | 100 | 96 | 91 | ·
67 | O=C(O)c1cc2c3c(c1)C1C=CCC1C(c1ccc(F)cc1)N3CC1CC=CC21 (configuration not stated) | 99 | · | · | 5
76 | O=C(Nc1cccc(F)c1)c1nnc(C2CCCN2C(=O)c2ccc(Cl)cc2)s1 (configuration not stated) | 109 | · | · | -25
80 | COc1cccc(C2NC(=O)NC(C)=C2C(=O)Nc2cccc(Cl)c2)c1OC (configuration not stated) | 109 | 103 | 87 | 2
66 | C=CCN1CC(c2nc3ccccc3n2CC(O)COc2cc(C)ccc2C)CC1=O (configuration not stated) | 103 | · | · | 9
78 | CCc1ccc(N2C(=O)N(CC(N)=O)C3CS(=O)(=O)CC32)cc1 (configuration not stated) | 102 | 98 | 87 | -18
73 | Cn1cc(NC(=O)N(Cc2ccco2)CC2CCCO2)c2ccccc2c1=O (configuration not stated) | 97 | 92 | 94 | ·
75 | CCN(CC)c1ncc(C(=S)N=P(N(C)C)(N(C)C)N(C)C)s1 | · | 98 | 94 | -44
77 | Cc1ccc(C(=O)NCC2CCCO2)cc1NC(=O)C1=CSCCO1 (configuration not stated) | 99 | · | · | -24
64 | CC1=NN(C(=O)c2ccccc2)C(O)(C(F)(F)F)C1 (configuration not stated) | 102 | 107 | 87 | ·
70 | Cc1nc(S(=O)(=O)NC2CCS(=O)(=O)C2)cn1C (configuration not stated) | 98 | 100 | 96 | 17
71 | CCOC(=O)c1c(C)cc(C)n2c1nc1ccccc12 | · | 94 | 97 | -21
